# VDR inhibitor – inhibitors of human vitamin D receptor. P11473. AID 504847. VDR-SRC2-3 peptide fluorescence polarization, 2 h. actives 0.93% (n = 400,000). Potency, µM, without a hit: max response, negative = inhibition, usual class: inhibitors; active = well fitted inhibition curve with a large enough effect; inconclusive = small, poorly fitted or top-dose-only effect, or another doubt; inactive = no such curve, though single readings can be large or run the other way; also: series mostly up to about 120 µM
# Target sequence (P11473 whole entry, looked up): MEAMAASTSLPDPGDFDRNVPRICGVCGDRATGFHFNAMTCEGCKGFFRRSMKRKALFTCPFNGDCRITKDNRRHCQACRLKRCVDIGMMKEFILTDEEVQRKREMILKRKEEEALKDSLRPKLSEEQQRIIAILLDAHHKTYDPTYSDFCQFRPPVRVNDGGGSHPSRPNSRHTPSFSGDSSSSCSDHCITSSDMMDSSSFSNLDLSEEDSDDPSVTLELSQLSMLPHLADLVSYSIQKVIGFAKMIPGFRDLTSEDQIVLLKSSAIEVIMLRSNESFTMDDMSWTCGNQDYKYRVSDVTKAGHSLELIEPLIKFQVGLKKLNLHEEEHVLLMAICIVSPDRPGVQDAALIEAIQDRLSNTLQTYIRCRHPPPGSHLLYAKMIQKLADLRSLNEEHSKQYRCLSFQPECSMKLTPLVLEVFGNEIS
#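 Compounds are added to VDR with labelled SRC2-3 coactivator peptide and held 2 h at room temperature. Inhibition of the VDR–peptide interaction is then read as a change in fluorescence polarization.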
# * = called active by the depositor; ? = inconclusive. % is scaled to controls: 0 for no effect and ±100 for the full control effect; potency is read from the fitted curve at half-maximal effect. An excerpt; rates above refer to the full screens.
VDR inhibitor | SMILES
16% | Cc1ccc(/C=C/C(=O)c2ccc(O)cc2)cc1
14% | O=C(N/N=C/c1cn[nH]c1-c1ccccc1)c1ccco1
7% | CCCCNC(=S)NNC(=O)c1cc(-c2ccncc2)nc2ccccc12
-12% | COC(=O)c1scc(C)c1NC(=O)/C=C/C(=O)O
-8% | CCn1cc(C(=O)NCCCN2CC(C)CC(C)C2)c(=O)c2cc(S(=O)(=O)N(C)C3CCCCC3)ccc21 (configuration not stated)
15% | CC(C)c1nnc(NC(=O)CCC(=O)N2CCN(C3CCCCC3)CC2)s1
2% | COc1ccc(NC(=O)CSc2nccn2Cc2ccco2)cc1
5% | O=C(CN1C(=O)NC2(CCOc3ccccc32)C1=O)N1CCCCC1 (configuration not stated)
6% | Cc1cccc(NC(=O)N2CC=C(c3c[nH]c4ccccc34)CC2)c1C
-9% | CCOC(=O)c1c[nH]c(=S)n(-c2ccccc2)c1=O
-24% | O=C(NC1CC1)C1CCCN1C(=O)NC1CCCCC1 (configuration not stated)
4% | CCCCOc1ccc(C(=O)NCC(=O)NCc2ccncc2)cc1
11% | Cc1ccc(S(=O)(=O)N2CCCOC2CNC(=O)C(=O)NCc2cccnc2)cc1 (configuration not stated)
-4% | Cc1nc2ccccn2c1C(=O)NN=C1C2CC3CC(C2)CC1C3
6% | CCn1c(NC(=O)Nc2ccccc2OC)nc2ccccc21
0% | Cc1cnc(C(=O)OCC(=O)N2c3ccccc3CC2C)cn1 (configuration not stated)
-7% | CCCCn1c(=O)[nH]c(=O)c2c1nc(-c1ccncc1)n2CCOC
18% | Cc1ccc(C)n1-c1nnc(N2CCCC(C(=O)NCc3ccccc3)C2)s1 (configuration not stated)
14% | Cc1ncc([N+](=O)[O-])n1Cc1cccc2ccccc12
6% | CC(=O)Nc1nonc1-c1nnc(SCc2ccc(F)cc2Cl)n1C
? | Cc1ccc(NC(=O)CN(C)C(=O)c2ccc(COc3ccccc3)cc2)cc1
9% | CCc1cccc(CC)c1N(COC)C(=O)Cn1nnc2ccccc21
-8% | Cc1ccsc1/C=N/Nc1nc(=O)[nH]nc1C
6% | CC(C)(C)n1nnnc1C(c1ccccc1F)N1CCN(C(=O)c2ccco2)CC1 (configuration not stated)
-1% | O=C(NCc1cc(C(F)(F)F)cc(C(F)(F)F)c1)C1CC(c2ccccc2C(F)(F)F)=NO1 (configuration not stated)
-9% | COc1ccc(S(=O)(=O)N2CCOCC2)cc1NC(=O)c1ccc(S(=O)(=O)N2CCCCC2)cc1
7% | CCN(C(=O)CSc1ncc(S(=O)(=O)c2ccc(C)c(Cl)c2)c(=O)[nH]1)c1cccc(C)c1
9% | COc1ccc(OC)c(S(=O)(=O)NC(N)=NCCc2ccccc2)c1
-7% | COc1ccc(NC(=O)Cc2ccc(-c3ccccc3)cc2)cn1
32µM* | O=C(c1ccc(Cl)c(S(=O)(=O)N2CCCC2)c1)N1CCN(c2ccccc2)CC1
2% | COc1ccccc1C(=O)NC(=O)CSc1nnc2ccccn12
? | CC(C)(C)OC(=O)C(Cl)(C(=O)OC(C)(C)C)c1ccc2nnnn2n1
-9% | O=C1NC2(CCCCC2)C(=O)N1Cc1ccc([N+](=O)[O-])cc1
-22% | Cc1ccc(N2CC(C(=O)OCC(=O)Nc3ccccc3C)CC2=O)cc1 (configuration not stated)
6% | CCn1c2ccccc2c2cc(C3C(C#N)=C(C)NC(C)=C3C#N)ccc21
14% | Cc1ccc(C23OC(=O)C(C)(C)C2OC(=O)C3(C)C)cc1 (configuration not stated)
-14% | Cc1ccc(OCC(=O)Nc2nnc(S(=O)(=O)N3CCCCCC3)s2)cc1C
-22% | CC1CCN(C(=O)COC(=O)CCc2c[nH]c3ccccc23)CC1
-19% | CC1(C)CC(=O)C2=C(C1)OC(N)=C(C#N)C21CCN(C(=O)OCc2ccccc2)CC1
-3% | NC(=O)C1CCN(C(=O)/C=C/c2cccc(Br)c2)CC1
-8% | Cc1cc(S(=O)(=O)N2CCCC2)ccc1OCC(=O)NC1CCCC1
-4% | Cc1nc2ccc(-n3ccc(=O)cc3)cc2s1
3% | Cc1ccc(S(=O)(=O)N(C)CCCC(=O)NCc2ccc3c(c2)OCO3)cc1
-5% | O=C(CCCN1C(=O)/C(=C/c2cccs2)SC1=S)Nc1cccnc1
11% | CC(Oc1ccc2c(c1)oc(=O)c1ccccc12)C(=O)NCCCN1CCOCC1 (configuration not stated)
-4% | CCOc1ccccc1N1CCN(S(=O)(=O)c2cccc3nsnc23)CC1
3% | CCOc1ccc(NC(=O)NCc2c(-n3cccc3)sc3c2CCCC3)cc1
10% | Cc1cc(OCCCSc2nc(-c3ccc(C(C)(C)C)cc3)nc3cc(=O)[nH]n23)ccc1Cl
-17% | CCCCC(=O)Nc1cnc(NC(=O)c2cccs2)cc1C
1% | COc1ccc(S(=O)(=O)CCC(=O)O)cc1
-3% | N#CCCn1c(=O)c(-c2cccc(C#N)c2)nc2cnc(Oc3cccc(Cl)c3)nc21
-10% | CN(Cc1nc2ccccc2c(=O)[nH]1)C(=O)c1cccc(S(=O)(=O)N2CCCCCC2)c1
-12% | COc1ccc(NC(=O)C2C3C=CC(C3)C2C(=O)NCc2ccco2)cc1 (configuration not stated)
-10% | O=C(NCCOc1ccccc1F)c1cc(F)c(F)cc1Cl
0% | COc1ccc(Cn2nnnc2C(c2cccs2)N2CCCCCC2)cc1 (configuration not stated)
-8% | CCN(CC(=O)NCc1ccc(F)cc1)Cc1nc2cc(Cl)ccc2c(=O)[nH]1
7% | Cc1ccc(NC(=O)c2ncn(-c3ccccc3)n2)cc1Cl
14% | O=C(NCCCN1CCOCC1)c1ccc2c(c1)N(Cc1cccc(Cl)c1)C(=O)CS2
? | COc1ccccc1C(=O)Nc1ccccc1C(=O)Nc1ccccc1
-2% | CCOC(=O)/C=C1/N(C)c2ccccc2C1(C)C

# Further structures follow.
VDR inhibitor | SMILES
2% | Cn1c(CSc2ncccn2)nnc1SCC(=O)N1CCCCC1
-10% | COc1ccc(NC(=O)CCC(=O)c2cccs2)cc1Cl
7% | COc1cc2c(cc1OC)C1=NC(=O)CN1C(SCc1ccccc1C)=N2
3% | CCCCCCNc1cc(C)oc(=O)c1C(C)=O
11% | CCOC(=O)c1c(NC(=O)COC(=O)Cc2n[nH]c(=O)c3ccccc23)sc(C(=O)NC)c1C
15% | CC(C)(C)C(=O)Nc1c(C(=O)N2CCN(c3ccc(F)cc3)CC2)oc2ccccc12
? | CN=c1scc(-c2cccs2)n1/N=C/c1ccc(O)c(O)c1O
13% | O=C(NCCc1ccccc1)c1cc(=O)c2ccccc2o1
-20% | NS(=O)(=O)c1ccc(CNC(=O)NC2(c3ccccc3)CC2)cc1
0% | Cc1ccccc1OCCC(=O)OCC(=O)N(C)c1c(N)n(Cc2ccccc2)c(=O)[nH]c1=O
1% | COc1ccc(-c2nc3c(C#N)c[nH]n3c2NC2CCCCC2)c(OC)c1
13% | O=C(NCCC1CC1(Cl)Cl)Nc1ccccc1 (configuration not stated)
3% | NS(=O)(=O)c1ccc(NC(=O)COC(=O)CN2C(=O)C3CC=CCC3C2=O)cc1 (configuration not stated)
2% | CCc1ccccc1NC(=O)CN1CCN(C(=O)C2CCN(C(=O)/C=C/c3ccccc3)CC2)CC1
8% | Cc1ccc(N(CC(O)CN2CCOCC2)S(=O)(=O)c2ccc3ccccc3c2)cc1 (configuration not stated)
3.5µM* | O=C1C(=O)c2ccc(-c3ccccc3)cc2-c2ccccc21
26% | CCCOC(=O)c1ccc(Oc2c(-c3ccc(OCC)cc3O)n[nH]c2C)cc1
-2% | CN1CCN(C(=S)NC(=O)c2ccccc2Cl)CC1
-3% | O=C(CC1C(=O)NCCN1CC(c1ccccc1)c1ccccc1)NC1CC1 (configuration not stated)
-9% | CN(C)c1ccc(N=c2sc3ccccc3n2C)cc1
1% | Fc1cccc(F)c1/C=C/c1ccc2ccccc2n1
? | CC(C)C(=O)Nc1nc2c(ncn2[C@H]2CC(O)[C@@H](CO)O2)c(=O)[nH]1 (some centres not stated)
-20% | COC(=O)c1ccc(NC(=S)NNC(=O)CC(C)C)cc1
0% | CC(=O)n1c(C=Nc2ccccc2)c(O)c2ccccc21
-19% | CCCCCCCNC(=O)C1(CC2CC(c3cccc(Br)c3)=NO2)CCN(C(=O)C2(C)CC2)CC1 (configuration not stated)
2% | CC(C)C(=O)Nc1ccc(C(=O)NNC(=O)CCc2ccccc2)cc1
-13% | O=C1C(Cl)=C(N2CCOCC2)C(=O)N1CCc1ccccc1
-9% | CC(C)c1nc2n[nH]c(N)c2c2c1CCC2
-15% | COc1ccc(/C=N/OCC(=O)NCC(C)C)c(OC)c1
0% | Cc1ccccc1N1CCN(c2ncnc3c2cnn3Cc2ccc(Cl)cc2)CC1

# VDR inhibitor, what is marked active above.
VDR inhibitor | SMILES
32µM* | O=C(c1ccc(Cl)c(S(=O)(=O)N2CCCC2)c1)N1CCN(c2ccccc2)CC1
3.5µM* | O=C1C(=O)c2ccc(-c3ccccc3)cc2-c2ccccc21

# An excerpt of these results, with tabs:
SMILES	VDR inhibitor
O=C(NCCC1CC1(Cl)Cl)Nc1ccccc1 (configuration not stated)	13%
NS(=O)(=O)c1ccc(NC(=O)COC(=O)CN2C(=O)C3CC=CCC3C2=O)cc1 (configuration not stated)	3%
CCc1ccccc1NC(=O)CN1CCN(C(=O)C2CCN(C(=O)/C=C/c3ccccc3)CC2)CC1	2%
Cc1ccc(N(CC(O)CN2CCOCC2)S(=O)(=O)c2ccc3ccccc3c2)cc1 (configuration not stated)	8%
O=C1C(=O)c2ccc(-c3ccccc3)cc2-c2ccccc21	3.5µM*

# (further entries)
VDR inhibitor | SMILES
0% | CSCc1cc(N2CCOCC2)nc(SCc2ccc(Cl)c(Cl)c2)n1
-16% | Cc1ccccc1Cc1ccc(Cl)nn1
-4% | N#Cc1ccccc1S(=O)(=O)c1ccccc1C(=O)Nc1ccccc1
12% | CCOC(=O)c1[nH]c2ccc(F)cc2c1NC(=O)C1=COCCO1
-3% | O=C(COc1ccc(S(=O)(=O)NC2CCCCC2)cc1Cl)Nc1ccc2c(c1)OCO2
? | COc1ccc(Cl)cc1NC(=O)c1ccc2c(SCC(=O)O)c3c(nc2c1)CCCC3
2% | Cc1cc(=O)oc2cc(OC(C)C(=O)O)c(Cl)cc12 (configuration not stated)
8% | CCn1c(C(=O)NCCc2ccc(OC)c(OC)c2)cc2sc(Cl)cc21
-27% | COC(=O)CC1COc2ccccc2N1C(=O)c1cc(OC)c(OC)c(OC)c1 (configuration not stated)
-19% | COc1ccc(/C=C(\C#N)C(=O)NC(C)c2ccccc2)cc1O (configuration not stated)
-1% | C/C(=N\NC(=O)c1ccc(C)cc1)c1c(C)[nH]n(-c2ccccc2)c1=O
-16% | Cc1cc(C(=O)C(C)Sc2cccc[n+]2[O-])c(C)n1-c1ccc(Cl)cc1 (configuration not stated)
7% | Cc1c(-c2ccco2)[n+](=O)c2c(n1[O-])CCC2
-10% | Cc1nc(C)c(-c2nnc(-c3ccccc3Cl)o2)cc1C(=O)NN
-5% | CC(=O)Nc1ccc(NC(=O)CSc2nnc3c4ccccc4n(C)c3n2)cc1
-7% | CC(C)C[C@H](NC(=O)C1CCN(C(=O)[C@H](Cc2ccccc2)NC(=O)OC(C)(C)C)CC1)C(=O)O
-17% | CCOc1ccc(CC(=O)NC2CC(C)(C)N(C)C(C)(C)C2)cc1OCC
-18% | COc1ccc(Cl)cc1C(=O)NNC(=S)NC1CCCC1
3% | Cc1cc(N2CCN(c3ccccc3)CC2)nc(N2CCOCC2)n1
-4% | CCOC(=O)C1(C)NC(c2ccc(OC)cc2OC)C2C(=O)N(CC)C(=O)C21 (configuration not stated)
7% | CC(C)Cc1ccc(CN2CCCC(NC(=O)c3nn(C)c(=O)c4ccccc34)C2)cc1 (configuration not stated)
7% | Cc1ccsc1/C=N/n1c(-c2ccco2)n[nH]c1=S
-19% | CC(=O)c1cccc(N(C(=O)Cn2nnc3ccccc32)C(C(=O)NCC2CCCO2)c2ccc(N3CCOCC3)cc2)c1 (configuration not stated)
8% | O=C(Cc1c(O)c2ccccc2[nH]c1=O)NCc1ccccc1
8% | CN(C)S(=O)(=O)c1ccc(-c2csc(N/N=C/c3ccc(O)cc3)n2)cc1
7% | CN(Cc1ccc(Cl)cc1Cl)C(=O)CNC(=O)c1ccc2c(c1)OCO2
-9% | COc1cccc(-c2cc(C(=O)Nc3cccnc3)no2)c1
-24% | COc1cc2cnc(-c3ccccc3)c(-c3cccc(C(F)(F)F)c3)c2cc1OC
18% | O=C(C1CCN(S(=O)(=O)c2cccc3cccnc23)CC1)N1CCCCC1
-11% | N#Cc1ccc(C(=O)Nc2cccc3cccnc23)c(F)c1

# Pulled by structure from above, four records:
VDR inhibitor | SMILES
3% | Cc1cc(N2CCN(c3ccccc3)CC2)nc(N2CCOCC2)n1
0% | Cc1cnc(C(=O)OCC(=O)N2c3ccccc3CC2C)cn1 (configuration not stated)
-10% | O=C(NCCOc1ccccc1F)c1cc(F)c(F)cc1Cl
14% | O=C(N/N=C/c1cn[nH]c1-c1ccccc1)c1ccco1

# Next section:
VDR inhibitor | SMILES
0% | Cc1ccc(S(=O)(=O)N2CCOC2CNC(=O)C(=O)NCc2cccnc2)cc1 (configuration not stated)
-12% | COc1ccc(N2Cc3ccccc3C2=O)cc1
15% | Cn1cc(C(=O)N2CCc3ccccc32)cn1
12% | O=C(OCC(=O)N1CCCC1)c1cc(F)c(F)cc1Cl
-5% | O=C(Nc1ncn[nH]1)c1cc([N+](=O)[O-])ccc1Cl
? | O=C(CSc1nccn1-c1ncc(C(F)(F)F)cc1Cl)c1ccc(Br)cc1
? | CCOC(=O)c1c(-c2ccc(C)cc2C)csc1NC(=O)c1ccccc1Cl
-13% | O=C(Cn1c(SCc2ccccc2)nc2ccccc21)N1CCOCC1
17% | CN(C)C(/C=C/Nc1ccc(C#N)cc1)=C(C#N)C#N

# Entries listed so far that have bromine:
VDR inhibitor | SMILES
-3% | NC(=O)C1CCN(C(=O)/C=C/c2cccc(Br)c2)CC1
-19% | CCCCCCCNC(=O)C1(CC2CC(c3cccc(Br)c3)=NO2)CCN(C(=O)C2(C)CC2)CC1 (configuration not stated)
? | O=C(CSc1nccn1-c1ncc(C(F)(F)F)cc1Cl)c1ccc(Br)cc1

# From PubChem
